SARS PLpro yeast = inhibitors of SARS-CoV papain-like protease in yeast; S. cerevisiae expressing SARS-CoV PLpro, growth rescue; control for the full effect not named in the record; Potency, µM (top dose mostly 32.9 µM), without a hit: top-dose activity, positive = growth rescue; 330,000 tested, 0.19% active; AID 485353; active means well fitted rising curve with a large enough effect; inconclusive means small, poorly fitted or top-dose-only effect; inactive means no such curve, though single readings can be large or run the other way; note: 0% is about no effect; nearly all actives have a fitted effect of over 55% in size; growth read by luminescence after 48 h
MARV entry inh = inhibitors of Marburg virus binding or cell entry. Potency, µM (doses to about 37.8 µM), for the others: at the highest dose activity change, negative = inhibition, hits mostly inhibitors. 300,000 tested, 1.8% active. Marburg virus pseudotyped entry inhibition, cell reporter; control for the full effect not named in the record; about a third of the inactives were read at about 46 µM; active = well fitted inhibition curve with a large enough effect; inconclusive = small, poorly fitted or top-dose-only effect, or effect the other way; inactive = flat fitted curve, though single readings scatter; tested in HEK293 cells; about a fifth of its hits are not listed in these tables; note: % is set by controls: 0 for no effect and ±100 for the full control effect; luciferase read-out
NS1 function inh = influenza NS1 inhibition; S. cerevisiae slowed by influenza A NS1, growth recovery by OD600; Potency, µM (highest dose often 46.1 µM), inactives show at the top dose activity, positive = more growth; 270,000 tested, 0.4% active; AID 2326; active means well fitted rising curve with a large enough effect; inconclusive means small, poorly fitted or top-dose-only effect; inactive means no such curve, though single readings can be large or run the other way; note: nearly all actives have a fitted effect of over 50% in size
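Compounds were scored for reversing the slow growth caused by influenza A NS1 in S. cerevisiae, measured by optical density at 600 nm. Assay medium contained 2% galactose at pH 6.0; NS1-free yeast of the same strain were the positive control.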
StopGo reporter = FMDV 2A StopGo reporter, luciferase signal; human cells with a luciferase reporter of 2A StopGo recoding; control for the full effect not named in the record; Potency, µM (highest dose often 57.9 µM), without a hit: at the highest dose signal change, negative = less light; 410,000 tested, 1.2% active; active = well fitted falling curve with a large enough effect; inconclusive = small, poorly fitted or top-dose-only effect; inactive = no such curve, though single readings can be large or run the other way; tested in HEK293T cells; note: % is set by controls: 0 for no effect and ±100 for the full control effect; nearly all actives have a fitted effect of over 45% in size; luciferase light after 4 h
RE007 growth inh = less growth of the S. pombe RE007 Vpr strain; S. pombe RE007 Vpr strain, BacTiter-Glo ATP luminescence, 24 h; control for the full effect not named in the record; AID 651644; Potency, µM (top dose mostly 92.2 µM), inactives show at the highest dose activity change, negative = less growth; 360,000 tested, 0.21% active; active = well fitted falling curve with a large enough effect; inconclusive = small, poorly fitted or top-dose-only effect; inactive = no such curve, though single readings can be large or run the other way;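 note: % is set by controls: 0 for no effect and ±100 for the full control effect; nearly all actives have a fitted effect of over 50% in size; the assay follows cell death caused by Vpr and the record does not say whether a fall means rescue or toxicity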
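Fission yeast strain RE007, carrying one chromosomally integrated HIV-1 vpr copy, was seeded at OD 0.01 in PMG+AL medium with 23 nL pinned compound. After 24 h at 30 °C and 99% humidity, viability was read by BacTiter-Glo luminescence.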
Lassa entry inh = Lassa virus entry inhibition; Lassa virus pseudotype entry inhibition, cell reporter; control for the full effect not named in the record; Potency, µM (doses to about 37.9 µM), for the others: at the top dose activity change, negative = inhibition, usual class: inhibitors; 300,000 tested, 1.2% active; active means well fitted inhibition curve with a large enough effect; inconclusive means small, poorly fitted or top-dose-only effect, or effect the other way; inactive means flat fitted curve, though single readings scatter; tested in HEK293 cells; note: % is set by controls: 0 for no effect and ±100 for the full control effect; nearly all actives have a fitted effect of over 50% in size; luciferase read-out
Cruzain noTriton = inhibitors of Trypanosoma cruzi cruzain without detergent; P25779; purified cruzain, Z-FR-AMC fluorescence, no detergent; Potency, µM, without a hit: max response, negative = inhibition, hits mostly inhibitors; 200,000 tested, 2.3% active; AID 1476;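 note: plate controls were enzyme without inhibitor for no effect and buffer without enzyme for full effect; nearly all actives have a fitted effect of over 40% in size; top concentration of the series not given in the record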
Target sequence (P25779 123-467 limits assumed): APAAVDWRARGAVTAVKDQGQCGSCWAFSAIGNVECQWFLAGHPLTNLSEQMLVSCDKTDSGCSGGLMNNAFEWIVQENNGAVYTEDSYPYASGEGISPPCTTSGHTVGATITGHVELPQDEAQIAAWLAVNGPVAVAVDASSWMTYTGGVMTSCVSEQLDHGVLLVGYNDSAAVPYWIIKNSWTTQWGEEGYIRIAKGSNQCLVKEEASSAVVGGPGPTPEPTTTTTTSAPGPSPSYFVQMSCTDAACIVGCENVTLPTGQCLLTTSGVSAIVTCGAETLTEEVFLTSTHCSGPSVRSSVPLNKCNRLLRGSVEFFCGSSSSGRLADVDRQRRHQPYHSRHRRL
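Detergent-free condition (0.00005% Triton X-100) in acetate buffer pH 5.5 with DTT. 1.5 nM enzyme and compound were pre-mixed 15 min, then 2 uM Z-FR-AMC substrate added; reaction progress from fluorescence change between first and third reads (60 s).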
Cruzain inh Det = cruzain (T. cruzi) inhibition with detergent; 200,000 tested, 0.43% active; P25779; purified cruzain, Z-FR-AMC fluorescence, 0.01% Triton; Potency, µM, for inactives: max response, negative = inhibition, most hits filed as inhibitors; AID 1478;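 note: plate controls were neutral wells for no effect and buffer without enzyme for full effect; nearly all actives have a fitted effect of over 40% in size; top concentration of the series not given in the record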
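Cysteine protease activity tested under reducing, mildly acidic conditions (100 mM sodium acetate pH 5.5, 5 mM DTT) plus 0.01% Triton X-100. Cruzain 1.5 nM; substrate Z-FR-AMC 2 uM; 15 min compound preincubation at room temperature.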
An asterisk follows results filed as active; ? = inconclusive; · = no result given; & = joins results of further samples; [ ] = another dose, or the depositor's remark. Unless noted, calls come from the whole dose curve; as a rule, active = well fitted curve in the direction sought with a large enough effect; inconclusive = small, poorly fitted or top-dose-only effect, or another doubt; inactive = no such curve, though single readings can be large; an effect the other way counts as inactive or inconclusive. Potency is the fitted concentration of half-maximal effect. Compounds as they come, and some 4.6% of all compounds hit somewhere here.

Values run as follows: SARS PLpro yeast	MARV entry inh	NS1 function inh	StopGo reporter	RE007 growth inh	Lassa entry inh	Cruzain noTriton	Cruzain inh Det
- COCCOC(=O)c1c(C)oc2ccc(NS(=O)(=O)c3ccccc3)cc12
 : 1%	-14%	-5%	·	-3%	-14%	-2%	-5.6%
- COc1cccc(CNC(=O)c2nnn(CC(=O)Nc3cc(Cl)ccc3C)c2N)c1
 : -2%	·	-4%	-12%&6%	-1%	-2%[46.1 µM]	?	-0.4%
- Cc1ccccc1Nc1nnc(SCC(=O)NCc2ccco2)s1
 : -8%	-4%	10%	-13%	-1%	-4%	-6%	-1.2%
- COc1ccc(S(=O)(=O)Nc2cc3c4c(c2)CCC(=O)N4CCC3)cc1
 : -24%	?	·	42%[activator]	-16%	-23%[46.1 µM]	·	·
- Cc1nn(Cc2ccc(F)cc2)c(C)c1NC(=O)c1cnn2c1NC(c1cccs1)CC2C(F)(F)F (stereo not given)
 : 5%	?	-4%	-27%	15%	7%	?	1.0%
- CC1(C)Cc2ccccc2-c2nc3n(c(=O)c21)CCCS3
 : 0%	5%	-3%	-24%	21%	9%[46.1 µM]	·	·
- CCN1C(=O)C(CC(=O)Nc2ccc(OC)cc2)N(Cc2ccc3c(c2)OCO3)C1=S (stereo not given)
 : 6%	?	1%	11%	12%	-13%	13%	-6.2%
- Cc1ccc(S(=O)(=O)Nc2c(NC3CCCCC3)c3ccccc3oc2=O)cc1C
 : -3%	·	7%	-20%	1%	·	·	·
- Cc1ccc(NC(=O)CN2C(=O)c3ccccc3S2(=O)=O)c(C)c1
 : -2%	1%[46.1 µM]	-7%	13%	4%	-20%[46.1 µM]	·	·
- CCOC(=O)c1nc(C)n(-c2ccc(Cl)cc2)n1
 : -7%	-14%	1%	39%[activator]	19%	1%	-10%	6.1%
- COc1ccc(C(=O)OCC(=O)Nc2ccc3c(c2)OCO3)cc1S(=O)(=O)N1CCOCC1
 : -1%	-1%	·	-5%	6%	-6%	·	·
- CCOc1ccc(N(CC(=O)Nc2cccc(Cl)c2)S(=O)(=O)c2c(C)noc2C)cc1
 : -14%	-4%	-181%	?	-7%	·	-3%	-2.0%
- Nc1cccc(CN2CCCC2)c1
 : 0%	5%	3%	-3%	-16%	10%	·	·
- CCOc1ccc(NC(=O)CC2C(=O)N(c3ccccc3)C(=O)N2CCOC)cc1 (stereo not given)
 : 4%	·	3%	-23%	16%	·	·	·
- O=C(Nc1ccccc1F)Nc1ccccc1OC(F)F
 : -4%	10%	-72%	-19%	-7%	-11%	·	·
- CCOC(=O)N1CCN(C(=O)/C(=C/c2ccc(OC)c(OC)c2)NC(=O)c2ccccc2)CC1
 : 0%	0%[46.1 µM]	4%	2%	-1%	?	·	·
- COc1ccccc1-c1noc(CSc2nc(C)cc(=O)[nH]2)n1
 : 0%	8%[46.1 µM]	1%	-5%	15%	4%	·	·
- Cc1ccccc1NS(=O)(=O)c1ccc2c(c1)NC(=O)CCS2
 : 4%	?	5%	-1%&1%	3%	?	3%	-1.8%
- Cc1ccc(S(=O)(=O)CCC(=O)OCC(=O)Nc2cc(S(=O)(=O)N3CCOCC3)ccc2C)cc1
 : -2%	28%	·	-16%	-16%	-1%	·	·
- CCc1nc(-c2ccccc2O)n(-c2ccccc2)n1
 : 0%	-3%	-12%	-12%	-9%	-8%	15%	-2.3%

Next section
Values run as follows: SARS PLpro yeast	MARV entry inh	NS1 function inh	StopGo reporter	RE007 growth inh	Lassa entry inh	Cruzain noTriton	Cruzain inh Det
- CC1=CCC2C(=O)N(c3ccc(N4CCOCC4)cc3)C(=O)C2C1 (stereo not given)
 : -1%	13%	5%	-8%	-6%	18%	·	·
- Cc1ccc(/C(O)=C2\C(=O)C(=O)N(C)C2c2ccccc2[N+](=O)[O-])cc1 (stereo not given)
 : 2%	0%	-7%	20%	-9%	2%	·	·
- Cc1cc(OCCCC(=O)NCCc2ccccn2)ccc1Cl
 : -8%	4%[46.1 µM]	-8%	13%	-16%	-1%[46.1 µM]	·	·
- COc1ccc(C2(c3ccc(OC)cc3)NC(=O)N(CC(=O)Nc3ccc(OC(F)F)cc3)C2=O)cc1
 : 4%	?	?	?	-5%	?	·	·
- CCOC(=O)CNS(=O)(=O)c1ccc(S(=O)(=O)N2CCCC2)cc1
 : -1%	5%	-3%	·	2%	-17%	11%	-0.1%
- Cc1ccc(C)c(C(=O)COC(=O)C(C)N2C(=O)C3C4CCC(C4)C3C2=O)c1 (stereo not given)
 : -2%	·	-6%	-14%	-15%	·	·	·
- COc1ccc(-c2csc(=Nc3ccccc3)n2CCO)cc1
 : -22%	?	-16%	25µM*	6%	-9%&-14%	1%	-1.8%
- O=C(CS(=O)(=O)c1cn(Cc2ccc(Cl)cc2)c2ccccc12)N1CCCC1
 : -2%	·	0%	0%	11%	·	?	-0.9%
- CCOc1cc(CNc2cccc3ccccc23)cc(Br)c1OCC(=O)NC(C)(C)C
 : 14%	?	19%	·	-6%	?	?	1.5%
- O=C(Nc1ccc(Cl)c(C(F)(F)F)c1)NC1CC2CCCC(C1)N2C1CC1 (stereo not given)
 : ·	?	·	?	5%	?	·	·
- COc1cc(/C=N\Nc2nncn2N)ccc1OC(C)=O
 : 21%	?	-1%	7%	1%	?	·	·
- O=C(CN1CCN(c2ccccc2)CC1)N1CCc2[nH]c3ccccc3c2C1
 : 1%	-18%	-16%	-19%	0%	-23%	2%	0.3%
- CCOC(=O)c1ccccc1NC(=O)Cn1ccn2nc(-c3ccc(OCC)cc3)cc2c1=O
 : ·	·	·	-12%	·	?	-8%	0.2%
- CN(c1cccc(NC(=O)Nc2ccc(Cl)cc2)c1)S(C)(=O)=O
 : -4%	?	0%	-8%	-4%	-26%	1%	-15%
- CCN(CC)C(=O)CSc1nnc(-c2cnccn2)n1-c1ccccc1
 : 5%	17%	9%	-10%	0%	-9%	10%	3.9%
- CC(C)C(=O)Nc1cccc(NC(=O)c2ccc([N+](=O)[O-])cc2Cl)c1
 : 12%	-18%	11%	-10%	·	-1%	-8%	0.4%
- O=C1CSc2ccc(S(=O)(=O)NCc3ccccc3Cl)cc2N1
 : 29%	·	8%	77%[activator]	1%	·	·	·
- Cc1nc2ccc(NC(=S)NC3CC3)cc2nc1C
 : -25%	?	-4%	10%	·	?	-6%	-5.5%
- O=C(CNC(=S)N(Cc1ccc(F)cc1)C1CCCCC1)NCC1CCCO1 (stereo not given)
 : 1%	3%[46.1 µM]	7%	4%	1%	-5%	·	·
- N#Cc1ccc(/C=N/NC(=O)c2ccccc2F)cc1
 : -15%	18%	-2%	12%	13%	11%	1%	-5.5%

Carrying on.
Values run as follows: SARS PLpro yeast	MARV entry inh	NS1 function inh	StopGo reporter	RE007 growth inh	Lassa entry inh	Cruzain noTriton	Cruzain inh Det
- O=C(Nc1nnc(SCc2ccc(F)cc2)s1)c1cccnc1Cl
 : -4%	6%[46.1 µM]	·	-13%	-19%	-18%[46.1 µM]	·	·
- Cc1cc(C)n2cc(CSc3nnnn3-c3ccccc3)nc2n1
 : -3%	1%	?	-18%	-1%	-3%	-17%	-8.3%
- O=C(CSc1ccccc1)N1CCN(c2ccccn2)CC1
 : -1%	7%[46.1 µM]	·	20%	-20%	-2%	·	·
- COc1ccccc1NC(=O)Cn1c(=O)n(Cc2ccccc2)c(=O)c2c3c(sc21)CN(C(C)=O)CC3
 : ·	0%[46.1 µM]	·	3%	·	·	-5%	0.2%
- CCOC(=O)C1CCN(C(c2cccc(F)c2)c2c(O)cc(C)n(Cc3ccco3)c2=O)CC1 (stereo not given)
 : ·	·	·	-25%	·	0%[46.1 µM]	?	4.3%
- O=C(c1cccn2c(=O)c3cc(Cl)ccc3nc12)N1CCC2(CC1)OCCO2
 : 5%	8%	-1%	15%	5%	14%	11%	-2.7%
- CCOc1ccccc1N1CCN(CC(=O)Nc2nc(C)c(C(=O)N(C)C)s2)CC1
 : -2%	-5%	5%	-4%	-15%	17%	·	·
- COc1ccc2c(c1)CC(C(=O)Nc1ccc(Cl)cc1)/C(=N/O)O2 (stereo not given)
 : 0%	·	3%	0%	-6%	·	·	·
- CCCCCCCCC(=O)N/N=C(\C)c1ccco1
 : -20%	18%	-30%	-3%	19%	-13%	-12%	-2.4%
- COc1ccc(CN(C)CC(=O)Nc2ccccc2-c2ccccc2)c(OC)c1
 : -1%	?	·	?	4%	?	·	·
- S=C(NCC1CCCO1)Nc1ccc(Cl)cc1 (stereo not given)
 : 20%	?	29%	62%[activator]	3%	16%	-4%	-4.1%
- COc1ccc(C(=O)c2c(C)c(CCC#N)n3ccccc23)c(OC)c1
 : 0%	5%[46.1 µM]	3%	-13%	10%	?	·	·
- Cn1c(SCC(=O)Nc2cc(=O)n(C)c(=O)n2C)nnc1C12CC3CC(CC(C3)C1)C2
 : -3%	0%	3%	·	·	·	?	4.7%
- Cc1ccc2[nH]c3c(N4CCc5ccccc5C4)ncnc3c2c1
 : -2%	6.3µM*	-79%	?	5%	?	?	?
- COc1ccc(CNC(=O)Nc2ccc(C)cc2)cc1
 : 1%	-1%[46.1 µM]	4%	19%	-3%	18%	15%	1.8%

At a glance, part of the list above:
Values run as follows: SARS PLpro yeast	MARV entry inh	NS1 function inh	StopGo reporter	RE007 growth inh	Lassa entry inh	Cruzain noTriton	Cruzain inh Det
- CCOC(=O)C1CCN(C(c2cccc(F)c2)c2c(O)cc(C)n(Cc3ccco3)c2=O)CC1 (stereo not given)
 : ·	·	·	-25%	·	0%[46.1 µM]	?	4.3%
- O=C(c1cccn2c(=O)c3cc(Cl)ccc3nc12)N1CCC2(CC1)OCCO2
 : 5%	8%	-1%	15%	5%	14%	11%	-2.7%
- CCOc1ccccc1N1CCN(CC(=O)Nc2nc(C)c(C(=O)N(C)C)s2)CC1
 : -2%	-5%	5%	-4%	-15%	17%	·	·
